# High-throughput results from PubChem BioAssay.
# HPGD inh: qHTS Assay for Inhibitors of HPGD (15-Hydroxyprostaglandin Dehydrogenase) | 15-hydroxyprostaglandin dehydrogenase [NAD(+)] (Homo sapiens), P15428 | purified HPGD, NADH fluorescence kinetic, PGE2 substrate | Potency, µM, for the others: at the highest dose activity change, negative = inhibition, hits mostly inhibitors | 4.3% of 150,000 active; active = well fitted inhibition curve with a large enough effect (not every such curve was filed as active); inconclusive = small, poorly fitted or top-dose-only effect, or another doubt; inactive = no such curve, though single readings can be large or run the other way;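 note: top concentration of the series not given in the record; plate controls included wells without enzyme; inactives centre near -10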
# Target sequence (P15428 whole entry, looked up): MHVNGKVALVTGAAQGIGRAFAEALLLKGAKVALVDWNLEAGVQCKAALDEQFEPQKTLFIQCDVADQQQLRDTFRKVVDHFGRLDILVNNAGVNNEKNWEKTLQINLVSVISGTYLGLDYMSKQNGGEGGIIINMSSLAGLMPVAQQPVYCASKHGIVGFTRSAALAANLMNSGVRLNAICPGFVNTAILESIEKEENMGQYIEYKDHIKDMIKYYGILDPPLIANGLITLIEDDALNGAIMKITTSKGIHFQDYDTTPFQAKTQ
#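 NADH formation kinetics: reaction with 30 uM PGE2 and 1 mM NAD+ (final), 20 nM enzyme, Tris-HCl pH 8 with Tween 20, after 15 min compound preincubation at room temperature. Fluorescence change, last versus first of five reads.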
# The depositor's hits bear a star; ? = inconclusive. % is set by controls: 0 for no effect and ±100 for the full control effect; potency is the fitted concentration of half-maximal effect.
HPGD inh	molecule
-5%	Cc1cc(C)nc(/N=C(\N)C2=C(O)CC(C)(C)CC2=O)n1
-7%	CC(C(=O)Nc1cccc([N+](=O)[O-])c1)n1nnc2ccccc21 (centres undefined)
-9%	CCCCCOc1ccc(C2NC(=O)NC2=O)cc1 (centres undefined)
-2%	CCCn1c(O)c2ccc(C(=O)N=NC(=O)c3cccnc3)cc2c1O
-29%	CC(C)(C)c1cccc(OCCCSc2ncccn2)c1
-21%	COc1ccc(/C=C/C(=O)c2oc3ccc(F)cc3c2C)cc1
-12%	COc1cc2nc(-c3ccccc3)nc(N3CCCC3)c2cc1OC
-10%	Cc1ccc2nc(C(=O)O)c(C(=O)O)nc2c1

# Next part:
HPGD inh	molecule
-8%	Cc1cccc(C(=O)NNC(=O)C(=O)NC(C)(C)C)c1
-3%	O=C(Nc1ccc(Cl)c(Cl)c1)Nc1cc(C(=O)NC2CC2)ccc1Cl
-1%	O=C(O)c1c2c(nc3ccc(F)cc13)CCC2
0%	Cn1c(CCCOc2ccc(Cl)cc2Cl)nnc1SCC(=O)Nc1ccc(F)c(Cl)c1
2%	CC(C)(C)C1(c2ccccc2)NC(=O)N(CC(=O)N2CCOCC2)C1=O (centres undefined)
0%	C#CCN(N(C)c1ncc(C(F)(F)F)cc1Cl)S(=O)(=O)c1ccc2ccccc2c1
4%	Cc1ccccc1Cn1c(=N)n(CC(O)c2ccco2)c2ccccc21 (centres undefined)
-13%	COCCNS(=O)(=O)c1ccccc1

# (cont.)
HPGD inh	molecule
-12%	COc1cc(NC(=O)CCNS(=O)(=O)c2ccc3c(c2)CCC(=O)N3)cc(OC)c1
6.3µM*	O=C(NCc1cccs1)c1nc2c(nnn2Cc2ccccc2Cl)c(=O)[nH]1
?	Cc1ccc(S(=O)(=O)NC(C(=O)Oc2cc3oc(=O)cc(C)c3cc2Cl)C(C)C)cc1 (centres undefined)
-23%	CN(Cc1ccccc1)S(=O)(=O)c1ccc(NS(=O)(=O)Cc2ccccc2)cc1
-25%	Cc1cc(N2CCN(C(=O)c3ccco3)CC2)n2nc(C)c(-c3ccccc3)c2n1
-16%	C=CCOc1ccc(C2C(C(=O)c3ccco3)=C(O)C(=O)N2Cc2cccnc2)cc1 (centres undefined)
-15%	CCCSc1nc(C)c(C(C)=O)cc1C#N
-10%	CCCOc1ccc(C(O)(CCC)CCN2CCCCC2)cc1 (centres undefined)

# Further records follow:
HPGD inh	molecule
-9%	CCOc1cc(C)c(Cl)cc1S(=O)(=O)N(C)C
7%	COc1cc(CN2CCN(c3ccccc3F)CC2)c([N+](=O)[O-])cc1OC
-10%	CNc1nnc(-c2cc3cc(Cl)ccc3oc2=O)s1
-3%	COC(=O)c1ccc(C(C(=O)NC2CCCCC2)N(C(=O)Cc2cccs2)C2CC2)cc1 (centres undefined)
-26%	Cc1ccc(OCCn2c(NC(=O)c3ccco3)nc3ccccc32)cc1
-28%	CCOC(=O)c1c(-c2ccco2)csc1N
-10%	CCOc1ccc2nc(N3CCC(C(=O)N4CCN(c5ccccn5)CC4)CC3)sc2c1
-2%	Cc1csc(NC(=O)CSc2nnc(-c3ccc(Cl)cc3)n2N)n1

# The list continues.
HPGD inh	molecule
-9%	C[N+](C)(C)CCOC(=O)CCC(=O)OCC[N+](C)(C)C
-13%	CSCCC(C(=O)OCC(=O)c1ccc(C)c(C)c1)N1C(=O)c2cc(Cl)c(Cl)cc2C1=O (centres undefined)
-10%	COc1ccccc1NC(=O)C(C)NS(=O)(=O)c1ccc(Cl)cc1 (centres undefined)
-7%	Cc1ccc(OCC(=O)NNc2c3ccccc3nc3ccccc23)cc1
-10%	O=S(=O)(Nc1ncnc2sc3c(c12)CCC3)c1ccc(Cl)s1
-16%	O=C(C1CC1)n1cc(C(=S)N2CCOCC2)c2ccccc21
-4%	COC(=O)Nc1nnc(Cc2ccccc2)s1
?	Cc1cc(C)c(C#N)c(SCc2ccc3c(c2)OCO3)n1

# (listing goes on)
HPGD inh	molecule
?	Fc1ccc(-n2c(-c3ccco3)nc3nc4ccccc4nc32)cc1
-5%	CCCCCCOc1ccc(N2C(=O)CC(NCCc3ccc(S(N)(=O)=O)cc3)C2=O)cc1 (centres undefined)
?	Cc1cc(=O)oc2cc(OC(=O)CCCCCN3C(=O)c4ccccc4C3=O)ccc12
?	Cc1ccc(-n2nnc3c(SCC(=O)NCc4ccco4)ncnc32)cc1
-6%	O=C(C1CC(c2ccc(F)cc2)=NO1)N1CCN(c2ccccc2)CC1 (centres undefined)
-9%	CCCCn1c(N)c(NCCC)c(=O)[nH]c1=O
?	Cc1cc(/C=N/n2cnnc2)c(C)n1-c1ccc(OCc2ccccc2F)cc1
-7%	CCCCC1=CC2=C(OC(C)=O)C(=O)C(C)(OC(=O)c3ccc(Cl)nc3)C(=O)C2=CO1 (centres undefined)

# Next part:
HPGD inh	molecule
-17%	O=C(OCc1ccc(Cl)cc1Cl)c1ccncc1
-3%	COC(=O)c1ccc(C(=O)OC)c(NC(=S)N2CCN(c3cc(Cl)ccc3C)CC2)c1
-3%	COc1ccc(NC(=O)CN(c2cc(C)cc(C)c2)S(=O)(=O)c2c(C)n[nH]c2C)cc1
-12%	COC(=O)/C(=C1/OC(=O)C(c2ccccc2)=C1O)c1ccccc1
-9%	Cc1nnc(NC(=O)CSc2nnc(C)n2Cc2ccccc2)s1
-6%	c1ccc2c(N3CCOCC3)nc(-c3ccncc3)nc2c1
-18%	CCc1ccc(Nc2nnc(SCC(=O)Nc3sccc3C(N)=O)s2)cc1
-24%	Cc1ccc2c(C)nc(Nc3nc(CSc4nnnn4-c4ccccc4)cc(=O)[nH]3)nc2c1

# Later entries.
HPGD inh	molecule
-12%	Cc1nn(C)cc1CNC(=O)c1cnn2c1NC(c1ccc(Br)cc1)CC2C(F)(F)F (centres undefined)
-13%	CCCCC/C=C\C/C=C\C/C=C\C/C=C\CCCC(=O)O[C@H](COCCCCCCCCCCCCCCCC)COP(=O)([O-])OCC[N+](C)(C)C
0%	CCCCCOCC1CC(C/C(C)=N/NC(N)=S)C(=O)O1 (centres undefined)
-21%	CCCCNC(=O)CC1N=C2c3ccccc3N=C(SCC(=O)Nc3cccc(C)c3)N2C1=O (centres undefined)
-8%	O=[N+]([O-])c1ccccc1OCCOCCOc1cccc2cccnc12
5%	Cc1ccc2c(c1)C(c1ccccc1)N(C(=O)c1ccc(S(=O)(=O)N3CCOCC3)cc1)CC(=O)N2 (centres undefined)
1%	Cc1onc(-c2ccccc2)c1C(=O)Nc1ccccc1C#N
-5%	CCCCCCCCCC(=O)O[C@H](CC(=O)O)C[N+](C)(C)C

# Ordered by number of heavy atoms (low to high): part of the list above
HPGD inh	molecule
0%	CCCCCOCC1CC(C/C(C)=N/NC(N)=S)C(=O)O1 (centres undefined)
-5%	CCCCCCCCCC(=O)O[C@H](CC(=O)O)C[N+](C)(C)C
-8%	O=[N+]([O-])c1ccccc1OCCOCCOc1cccc2cccnc12
-13%	CCCCC/C=C\C/C=C\C/C=C\C/C=C\CCCC(=O)O[C@H](COCCCCCCCCCCCCCCCC)COP(=O)([O-])OCC[N+](C)(C)C

# (list continues)
HPGD inh	molecule
-26%	CCN(CC)S(=O)(=O)c1ccc2oc(C(=O)NCCCN3CCOCC3)c(C)c2c1
-5%	Cc1ccc(CN2CCN(CC(=O)NC(C)c3ccc4c(c3)OCCO4)C2=O)cc1 (centres undefined)
-2%	CC(C)OCCCNS(=O)(=O)c1ccc2ccccc2c1
-23%	CCOc1ccc(C(=O)Nc2ccc(-c3cc4ccccc4oc3=O)c(C)c2)cc1[N+](=O)[O-]
-1%	COc1ccc(C(=O)NC2CCN(C(=S)Nc3ccc(C)c(C)c3)CC2)cc1
-20%	Cc1cccc(-n2c(N)cc(=O)nc2SC(C)C(=O)NC2CCCCC2)c1 (centres undefined)
-8%	Cc1nc(N2CCN(C)CC2)c2sc(=S)n(-c3ccccc3)c2n1
-8%	Cc1ccc(NC(=O)C(=O)NCCOc2ccc(Cl)cc2)c(C)c1

# Remaining list, next part:
HPGD inh	molecule
-5%	C=CCC(C#Cc1ccccc1)[N+](C)(C)CC=C (centres undefined)
?	CCOC(=O)C1(C)C=C(Nc2ccc(OC)cc2)C(=O)N1c1ccc(OC)cc1 (centres undefined)
-24%	S=c1nc(-c2ccc(Br)cc2)oc2c1CCCC2
-8%	O=C(c1ccc(F)cc1)C1CCN(C(=O)Nc2ccc(F)cc2)CC1
-10%	Cc1ccc(S(=O)(=O)/C(C#N)=C/c2c(Oc3ccc(Cl)cc3)nc3c(C)cccn3c2=O)cc1
-1%	CCN1CCN(Cc2ccc(NC(=O)Nc3cccs3)cc2)CC1
-8%	Nc1c(Cl)ncnc1N1CCOCC1
-13%	CC(C)C1Oc2ccccc2N(CC(=O)N(Cc2ccccn2)CC2CCCO2)C1=O (centres undefined)

# (next part)
HPGD inh	molecule
-1%	CC(=O)N1C(O)CC(C)N1c1ccccc1 (centres undefined)
-2%	Cn1c(=O)c2c(nc(CN3CCN(CCO)CC3)n2Cc2cccc3ccccc23)n(C)c1=O
-13%	COC(=O)c1c(-c2ccc(C)cc2)csc1NC(=S)NC(=O)c1cc(OC)cc(OC)c1
-14%	COC(=O)c1ccc(NC(=S)NC2CC(C)(C)NC(C)(C)C2)cc1
-19%	Fc1ccccc1C(c1nnnn1Cc1ccc2c(c1)OCO2)N1CCN(Cc2ccccc2)CC1 (centres undefined)
-11%	CCOC(=O)N1CCN(S(=O)(=O)c2cc(OCC)ccc2OCC)CC1
-9%	Cc1ccc(N2C(=O)C(NC(=O)c3ccccc3F)(C(F)(F)F)C3=C2CC(C)(C)CC3=O)cc1 (centres undefined)
-14%	CCOc1ccc(NS(=O)(=O)c2ccc(OC)c(NC(=O)c3ccc4c(c3)OCCO4)c2)cc1

# Reprinted from the results shown, 4 compounds:
HPGD inh	molecule
-19%	Fc1ccccc1C(c1nnnn1Cc1ccc2c(c1)OCO2)N1CCN(Cc2ccccc2)CC1 (centres undefined)
-11%	CCOC(=O)N1CCN(S(=O)(=O)c2cc(OCC)ccc2OCC)CC1
-9%	Cc1ccc(N2C(=O)C(NC(=O)c3ccccc3F)(C(F)(F)F)C3=C2CC(C)(C)CC3=O)cc1 (centres undefined)
-14%	CCOc1ccc(NS(=O)(=O)c2ccc(OC)c(NC(=O)c3ccc4c(c3)OCCO4)c2)cc1

# Remaining list, next part
HPGD inh	molecule
3%	C=CCN1CCN(C(c2ccc(Cl)cc2)c2nnnn2CCc2ccc(OC)c(OC)c2)CC1 (centres undefined)
-12%	CCOC(=O)C1CCN(C(=O)Nc2ccc3c(c2)nc(C)n3C)CC1
?	O=C(NC(=S)Nc1ccc(N2CCCCC2)c(Cl)c1)c1ccc2c(c1)OCCO2
-24%	Nc1c(C(=O)Nc2ccccc2)sc2nc(-c3ccco3)ccc12
-12%	CCOC(=O)c1ccc(Oc2cc(C)nc(SC)n2)cc1
-20%	CCn1cc(C(=O)NCc2ccccc2OC)c(=O)c2cc(S(=O)(=O)N(C)C)ccc21
-12%	Cc1cc(C)c[n+](C2=C([O-])c3ccccc3C(=O)/C2=N\S(=O)(=O)c2cccs2)c1
-8%	O=S(=O)(NCc1ccccn1)c1cccc2nsnc12

# New compounds follow.
HPGD inh	molecule
3%	O=C(Cn1cnc2ccccc2c1=O)NCC(=O)N1CCN(Cc2ccc3c(c2)OCO3)CC1
-23%	Cc1cc(=O)oc2ccc(OCC(=O)NCc3ccco3)cc12
?	O=C1OCCN1C(=O)[C@H]1[C@H](c2ccccc2)C(c2cccc(Cl)c2)=NN1c1ccc(Br)cc1
-5%	O=C(NCCc1cccs1)C1CC(c2ccccc2[N+](=O)[O-])=NO1 (centres undefined)
0%	Cc1cc(C(=O)Oc2cccnc2)ccc1[N+](=O)[O-]
-12%	COc1ccc(CSc2nnnn2C)cc1[N+](=O)[O-]
-8%	COc1cc(NC(=O)C(C)Oc2ccccc2)c(C(=O)O)cc1OC (centres undefined)
-12%	CC1Cc2ccccc2N1S(=O)(=O)c1cccc(C(=O)NC2CC2)c1 (centres undefined)

# Next section
HPGD inh	molecule
-7%	CN(C)CCCNC(=O)c1ccccn1
-19%	CCc1ccc2c(CN3CCN(S(=O)(=O)c4cccs4)CC3)cc(=O)oc2c1
-2%	CCSC1=C(C#N)C(c2cccc(OC)c2)CC(=O)N1 (centres undefined)
-16%	CN(C)C(=O)c1cc(S(=O)(=O)N(C)C)c(Cl)cc1N1CCCC1
5%	CC(=O)CC(c1ccccc1)S(=O)(=O)c1ccc(C)cc1 (centres undefined)
-23%	COCCNC(=S)N/N=C(\C)c1ccc2cc(OC)ccc2c1
13µM*	Clc1ccccc1CSc1nnc(-c2ccco2)c(-c2ccco2)n1
-13%	COc1ccc(-n2nnnc2SCC(=O)Nc2ccc3c(c2)OCCO3)cc1OC

# Brought forward from above: 2 entries, followed by the next part.
HPGD inh	molecule
13µM*	Clc1ccccc1CSc1nnc(-c2ccco2)c(-c2ccco2)n1
-13%	COc1ccc(-n2nnnc2SCC(=O)Nc2ccc3c(c2)OCCO3)cc1OC
-4%	O=C(CCn1nnc2ccccc21)Nc1nnc(COc2ccc(F)cc2)s1
-4%	COc1ccc(N(C(=O)c2ccco2)C(C(=O)NC2CCCC2)c2ccc(N(C)C)cc2)cc1 (centres undefined)
-10%	COc1ccc(N2C(=O)C(Cl)=C(N3CCCC(C)C3)C2=O)cc1 (centres undefined)
?	CCOc1ccc(CNC(=S)N/N=C/c2ccc(OC)c(OC)c2)cc1
-12%	Cc1noc(/C=C/N(C)C)c1S(=O)(=O)N1CCCC(C(=O)N2CCCCC2)C1 (centres undefined)
-5%	CCOC(=O)c1c(C)[nH]c(C(=O)CSc2ccc(Cl)cc2)c1C
1%	CC1(Cn2ccnn2)[C@H](C(=O)O)N2C(=O)C[C@H]2S1(=O)=O (some centres undefined)

# These rows are one share of the data; rates above refer to the full screens.
